Screening results: PubChem BioAssay, National Center for Advancing Translational Sciences (NCATS)
GAA spleen mod – qHTS Assay for Inhibitors and Activators of Human alpha-Glucosidase From Spleen Homogenate. Lysosomal alpha-glucosidase (Homo sapiens), P10253. human spleen homogenate, 4-MU-alpha-glucoside fluorescence. Potency, µM (top dose mostly 79.9 µM), for inactives: at the top dose activity change, negative = inhibition, actives largely listed as inhibitors. 240,000 tested, 0.006% active. AID 2112, 2009;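 note: 0% = enzyme with vehicle and -100% = no enzyme basal signal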
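Compounds were titrated against alpha-glucosidase in spleen homogenate at pH 5.0, with 1 mM 4-methylumbelliferyl substrate for 40 min at 37 C. Reactions were quenched with pH 10 NaOH/glycine and fluorescence measured.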
NPSR antag – qHTS Assay for Antagonists of the Neuropeptide S Receptor: cAMP Signal Transduction; Q6W5P4; CHO-NPSR cells, cAMP TR-FRET, antagonist mode; Potency, µM (top dose mostly 38.3 µM), for the others: top-dose activity change, negative = inhibition, most hits filed as inhibitors; 220,000 tested, 1% active; note: % is set by controls: 0 for no effect and ±100 for the full control effect; nearly all actives have a fitted effect of over 50% in size; many of its hits are not listed in these tables
Target sequence (Q6W5P4 whole entry, looked up): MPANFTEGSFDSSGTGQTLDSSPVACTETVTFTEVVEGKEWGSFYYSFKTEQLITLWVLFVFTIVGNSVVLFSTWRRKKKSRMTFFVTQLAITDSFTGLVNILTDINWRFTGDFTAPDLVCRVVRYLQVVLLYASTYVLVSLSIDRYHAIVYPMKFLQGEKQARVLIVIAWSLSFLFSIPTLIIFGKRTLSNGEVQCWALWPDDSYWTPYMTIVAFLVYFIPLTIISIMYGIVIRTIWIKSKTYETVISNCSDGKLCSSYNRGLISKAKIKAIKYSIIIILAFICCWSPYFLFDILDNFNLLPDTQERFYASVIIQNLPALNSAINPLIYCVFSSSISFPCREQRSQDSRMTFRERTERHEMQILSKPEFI
Epigenetic derep – Quantitative High-Throughput Screen for Regulators of Epigenetic Control; murine LDR cells, GFP reporter derepression, 30 h; Potency, µM (series often up to 53.9 µM), for the others: at the highest dose GFP activation, hits mostly activators; 280,000 tested, 0.2% active; AID 1865, 2009; note: % of control where 0% means no effect; nearly all actives have a fitted effect of over 60% in size
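Reporter derepression read as number of fluorescent GFP-positive objects, 20-120 um in size, counted by laser-scanning cytometer. Mouse LDR line with an epigenetically silenced CMV-GFP locus; compound incubation 30 h, 37 C.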
GAA glycogen – qHTS Assay for Inhibitors and Activators of Human alpha-Glucosidase Cleavage of Glycogen. Potency, µM (doses to about 76.4 µM), without a hit: at the highest dose activity change, negative = inhibition, actives largely listed as inhibitors. Lysosomal alpha-glucosidase (Homo sapiens), P10253. 300,000 tested, 0.38% active. recombinant GAA, glycogen substrate, Amplex Red glucose oxidase fluorescence;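 note: 0% = full enzyme reaction and -100% = no-enzyme basal signal; the screen sought inhibitors and activators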
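Recombinant human alpha-glucosidase (4 nM final) hydrolysed bovine liver glycogen (30 ug) for 40 min at 37 C in pH 5.0 citrate/phosphate with 0.01% Tween-20. Released glucose detected by glucose oxidase/Amplex Red, Ex 573/Em 610 nm. Compounds up to 77 uM; AC50 from Hill fits.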
GLA spleen mod – qHTS Assay for Inhibitors and Activators of Human alpha-Galactosidase From Spleen Homogenate | AID 2107, 2009 | human spleen homogenate, 4MU-alpha-Gal fluorescence, 40 min | Potency, µM (titrated, usually from 80 µM), for the others: top-dose activity change, negative = inhibition, actives largely listed as inhibitors | 240,000 tested, 0.008% active;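 note: 0% = enzyme with vehicle and -100% = no enzyme basal signal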
Target sequence (P06280 32-429 limits assumed): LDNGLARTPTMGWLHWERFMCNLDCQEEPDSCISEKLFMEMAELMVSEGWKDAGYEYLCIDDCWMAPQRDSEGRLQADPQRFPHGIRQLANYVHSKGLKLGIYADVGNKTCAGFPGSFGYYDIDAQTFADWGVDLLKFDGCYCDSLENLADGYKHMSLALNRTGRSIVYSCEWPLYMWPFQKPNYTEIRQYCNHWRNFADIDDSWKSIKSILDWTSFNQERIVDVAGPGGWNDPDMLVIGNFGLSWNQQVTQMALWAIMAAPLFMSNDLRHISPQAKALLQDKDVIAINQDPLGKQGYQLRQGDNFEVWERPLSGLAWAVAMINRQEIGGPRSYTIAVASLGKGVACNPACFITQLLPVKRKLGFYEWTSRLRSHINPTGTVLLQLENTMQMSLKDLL
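Spleen homogenate 1 ug + cpd (titration) + 4-MU-alpha-D-galactopyranoside 1 mM; 37C 40 min; 50 mM citrate/phosphate pH 5.0, 0.01% Tween-20; stop pH 10; fluorescence 365/440; AC50 via Hill.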
GAA inhib – qHTS Assay for Inhibitors of Human alpha-Glucosidase as a Potential Chaperone Treatment of Pompe Disease | Potency, µM (titrated, usually from 76.9 µM), for the others: at the highest dose activity change, negative = inhibition, usual class: inhibitors | 200,000 tested, 0.005% active | AID 1466, 2008 | purified human GAA, 4-MU-alpha-glucoside fluorescence | Lysosomal alpha-glucosidase (Homo sapiens), P10253;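 note: plate controls were uninhibited enzyme wells for no effect and no-enzyme background for full effect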
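Fluorescence at Ex 365/Em 440 nm from 4-methylumbelliferone reported enzyme activity after 20 min at room temperature. Reactions used 4 nM enzyme and 400 uM substrate at pH 5.0; curves fitted with the Hill equation.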
Tau fluor cs – Counterscreen qHTS for Inhibitors of Tau Fibril Formation, Fluorescence Polarization; tau K18 P301L Alexa594 fluorescence, heparin fibrillization; Potency, µM (series often up to 57.7 µM), for the others: at the top dose activity change, negative = decrease; 280,000 tested, 0.93% active; AID 1463, 2008; note: % is set by controls: 0 for no effect and ±100 for the full control effect; nearly all actives have a fitted effect of over 55% in size
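Human tau K18 P301L (15 uM unlabeled, 0.24 uM Alexa 594-labeled) in 100 mM sodium acetate pH 7 with 20 uM heparin, 6 hr at 37 C. ThT 30 uM added, 1 hr ambient; Alexa 594 FP and total fluorescence read at 555/632 nm.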
Starred values were filed as active, the others as inactive; ? = inconclusive; · = not tested or not shown; & = joins results of further samples; [ ] = dose if it differs, or a comment. Calls come from the whole dose curve; as a rule, active = well fitted curve in the direction sought with a large enough effect; inconclusive = small, poorly fitted or top-dose-only effect, or another doubt; inactive = no such curve, though single readings can be large; an effect the other way counts as inactive or inconclusive. Potency is the fitted concentration of half-maximal effect.

Order of results: GAA spleen mod | NPSR antag | Epigenetic derep | GAA glycogen | GLA spleen mod | GAA inhib | Tau fluor cs
O=C(NCCOc1ccccc1F)c1cc(F)c(F)cc1Cl
→ 6% | 10% | 3.0% | -5% | 27% | -3% | -2%
O=C(Cc1ccc(Cl)cc1)NCCS(=O)c1ccc(Cl)cc1 (configuration not stated)
→ -4% | 5%[46.1 µM] | -1.9% | -16% | 2% | -6% | -8%
Cc1nccc2[nH]c(=O)c(C(=O)NC3CCCCC3C)cc12 (configuration not stated)
→ 0% | -17%[46.1 µM] | 0.0% | 8% | 9% | -12% | -1%
O=C(O)CN(Cc1ccccc1)S(=O)(=O)c1ccc(F)cc1
→ -9% | -7%[46.1 µM] | -1.1% | -1% | -7% | 2% | 8%
C#CCNC(=O)C1=C[C@H](c2ccccc2)[C@@H](CCCO)[C@H](OCC)O1
→ -7% | -7% | -3.0% | -8% | 6% | · | -2%
CNc1ncc(Cc2ccccc2)s1
→ -1% | -1% | 1.0% | 2% | -5% | 1% | -2%
Cc1ccc(-c2nc3c(c(=O)[nH]c(=O)n3CC(C)C)n2CC(C)C)cc1[N+](=O)[O-]
→ 1% | -44% | -0.6% | 1% | 4% | -16% | -2%
Cc1ccc(SCC(=O)NCc2ccco2)cc1
→ 0% | 5% | -0.1% | 5% | 7% | 15% | 2%
CCCCn1c(=NC(=O)c2ccco2)c(C(=O)OCC)cc2c(=O)n3ccccc3nc21
→ 14% | -17%[46.1 µM] | -0.9% | 2% | ? | -6% | -10%
CCC/C=N/NC(=O)c1ccc(F)cc1
→ 12% | 18% | -1.5% | ? | 2% | -2% | -1%
O=c1[nH]nc(CSCc2ccccc2Cl)[nH]1
→ -5% | -4%[46.1 µM] | 1.6% | 2% | 6% | 7% | 1%
O=C(Cn1c(NCCO)nc2ccccc21)NCCc1ccc(F)cc1
→ 1% | 4%[46.1 µM] | -3.2% | 13% | 3% | -5% | 3%
CN1C(=O)NC(NC(=O)c2ccncc2)(C(F)(F)F)C1=O (configuration not stated)
→ -2% | 1%[46.1 µM] | -0.4% | -13% | 9% | -4% | 10%
COC(=O)CSc1nc(N)c2c3c(sc2n1)CCCC3
→ 1% | -10%[46.1 µM] | -1.9% | -11% | -10% | 1% | -16%
NS(=O)(=O)c1ccc(CCNC(=O)c2cncc(Br)c2)cc1
→ 2% | 0%[46.1 µM] | -1.1% | -2% | -2% | 2% | -2%

Of the compounds above, eight contain a halogen:
Order of results: GAA spleen mod | NPSR antag | Epigenetic derep | GAA glycogen | GLA spleen mod | GAA inhib | Tau fluor cs
O=C(NCCOc1ccccc1F)c1cc(F)c(F)cc1Cl
→ 6% | 10% | 3.0% | -5% | 27% | -3% | -2%
O=C(Cc1ccc(Cl)cc1)NCCS(=O)c1ccc(Cl)cc1 (configuration not stated)
→ -4% | 5%[46.1 µM] | -1.9% | -16% | 2% | -6% | -8%
O=C(O)CN(Cc1ccccc1)S(=O)(=O)c1ccc(F)cc1
→ -9% | -7%[46.1 µM] | -1.1% | -1% | -7% | 2% | 8%
CCC/C=N/NC(=O)c1ccc(F)cc1
→ 12% | 18% | -1.5% | ? | 2% | -2% | -1%
O=c1[nH]nc(CSCc2ccccc2Cl)[nH]1
→ -5% | -4%[46.1 µM] | 1.6% | 2% | 6% | 7% | 1%
O=C(Cn1c(NCCO)nc2ccccc21)NCCc1ccc(F)cc1
→ 1% | 4%[46.1 µM] | -3.2% | 13% | 3% | -5% | 3%
CN1C(=O)NC(NC(=O)c2ccncc2)(C(F)(F)F)C1=O (configuration not stated)
→ -2% | 1%[46.1 µM] | -0.4% | -13% | 9% | -4% | 10%
NS(=O)(=O)c1ccc(CCNC(=O)c2cncc(Br)c2)cc1
→ 2% | 0%[46.1 µM] | -1.1% | -2% | -2% | 2% | -2%

(listing goes on)
Order of results: GAA spleen mod | NPSR antag | Epigenetic derep | GAA glycogen | GLA spleen mod | GAA inhib | Tau fluor cs
O=C(Nc1cccn2ncnc12)c1cccc(C(F)(F)F)c1
→ -3% | 3% | 1.1% | -4% | -5% | -9% | 3%
CCN(CC)P(=O)(C(NC(=O)OC)C(F)(F)C(F)(F)C(F)(F)C(F)F)N(CC)CC (configuration not stated)
→ 3% | -28%[46.1 µM] | 0.5% | -2% | 2% | ? | -2%
Cc1ccc2cc(CN(CCN3CCCC3)C(=O)Nc3ccc(F)cc3)c(=O)[nH]c2c1C
→ -7% | -5%[46.1 µM] | -1.1% | 4% | -3% | ? | -4%
C=CCn1c(SCC(=O)NCc2ccco2)nc2ccccc2c1=O
→ 1% | -3% | 0.0% | -1% | -1% | 3% | 2%
CCOc1ccccc1C(=O)N(CCC(=O)OC)c1ccccn1
→ -4% | -22%[46.1 µM] | -0.9% | -7% | -3% | 5% | 4%
O=C(CN1C(=O)c2ccccc2S1(=O)=O)NCc1cccnc1
→ -3% | -11%[46.1 µM] | -1.1% | -12% | 0% | -14% | -6%
CNC(=O)N(O)C1N(c2ccccc2)C(=S)SC1(C)C (configuration not stated)
→ 2% | 29% | 1.5% | 8% | 9% | 5% | 9%
O=C(N/N=C/c1cn[nH]c1-c1ccc(F)cc1)c1ccncc1
→ -5% | 0% | -1.3% | -10% | -9% | 1% | 12%
CN(C)CCCNC(=O)CCc1nc2ccccc2c(=O)[nH]1
→ -1% | -9%[46.1 µM] | -1.2% | -3% | 5% | 2% | -8%
COc1ccc(OCCOCC(O)CN2CCOCC2)cc1 (configuration not stated)
→ 0% | 3%[46.1 µM] | 1.0% | -16% | 14% | -14% | 5%
O=C(NC(=S)Nc1cccc(Cl)c1N1CCOCC1)c1cccs1
→ -4% | -57% | -3.1% | -2% | -4% | 2% | -28%
Cc1c(C(C)O)nnn1-c1nonc1N (configuration not stated)
→ 1% | 8%[46.1 µM] | 6.2% | 2% | -1% | 3% | -10%
COC(=O)CSc1ccsc1C(=O)O
→ 2% | -1% | -5.4% | 10% | 5% | -11% | 2%
CCOC(=O)N/N=C1/C[C@@H](O)[C@@H](O)[C@@H]2[C@@H]3C(=O)N(CC)C(=O)[C@H]3CC[C@@H]12
→ 3%[17.4 µM] | · | -1.6%[10.1 µM] | · | 2%[17.5 µM] | · | 1%[11.6 µM]
COc1ccc(C2=CC3=C(Br)C(=O)C(C)(O)C(=O)C3=CO2)cc1 (configuration not stated)
→ 10%&-12% | -12% | -1.1%&-0.8% | -11% | -12%&-3% | · | ?
Cc1occc1-c1nc(-c2ccccn2)no1
→ 5% | -32%[46.1 µM] | 0.3% | 7% | 7% | 0% | 1%
Brc1ccc(/C=N/Nc2ccc3ccccc3n2)cc1
→ -3% | -16%[46.1 µM] | -2.0% | -17% | 11% | 7% | ?
CN(C)c1ccc(-c2nc(-n3ccnc3)c3ccccc3n2)cc1
→ 9% | · | · | · | 8% | · | ·
Cc1ccccc1CNC(=O)Cc1ccccc1[N+](=O)[O-]
→ -3% | 8% | 1.6% | -4% | 2% | 10% | -4%
Cc1cccc(NC(=O)c2ccc(S(=O)(=O)C(F)F)cc2)c1C
→ -4% | 1% | -1.1% | 4% | -7% | 1% | -5%
Cc1cc(OCC(=O)Nc2ccc(N3CCN(C(=O)c4ccco4)CC3)cc2)cc(C)c1Cl
→ -8% | 1%[46.1 µM] | -0.9% | 0% | -4% | 0% | -29%
Cc1ccc(C(=O)NCCCn2ccnc2)cc1[N+](=O)[O-]
→ 1% | 1%[46.1 µM] | 3.5% | 8% | -1% | -11% | -2%
Cc1ccc(/C=N/NC(=O)c2ccoc2C)o1
→ 7% | 14% | 0.0% | -8% | 1% | 7% | 12%
CCOC(=O)C1CCN(c2c(NC3CCCc4ccccc43)c(=O)c2=O)CC1 (configuration not stated)
→ 2% | -9% | 2.0% | -2% | 7% | 0% | -4%
CCN(c1ccc(NC(=O)COC(=O)c2ccc(C)c(S(=O)(=O)N3CCOCC3)c2)cc1)C(C)C
→ -5% | -27%[46.1 µM] | -3.9% | 5% | 0% | -31% | ?
O=C1c2cccnc2C(Nc2ccc(Br)cc2Br)N1Cc1cccs1 (configuration not stated)
→ 0% | -27% | -1.5% | 29% | 3% | 5% | -15%
CC(NCc1nc2ccccc2n1C)C12CC3CC(CC(C3)C1)C2 (configuration not stated)
→ -1% | ? | 0.0% | 8% | -7% | 1% | -8%
COc1cc(S(=O)(=O)n2c(C)nc3ccccc32)ccc1F
→ -4% | -14%[46.1 µM] | 1.1% | -12% | 0% | -2% | -2%
COc1ccccc1NC(=O)CN1CCC(c2nc3ccccc3[nH]2)CC1
→ 2% | 6% | 0.2% | 1% | 2% | 5% | -16%
O=C(Cn1cnc2c(nnn2Cc2ccccc2)c1=O)NCC1CCCO1 (configuration not stated)
→ 3% | 4%[46.1 µM] | 0.0% | -3% | 2% | 2% | 1%
Cc1sc2ncn3c(C)nnc3c2c1C
→ 5% | -3%[46.1 µM] | -2.6% | 4% | 5% | -2% | 4%
CO[C@H]1C([C@@]2(C)O[C@@H]2CC=C(C)C)[C@]2(CC[C@H]1OC(=O)/C=C/C=C/C=C/C=C/C(=O)O)CO2 (some centres not stated)
→ -14% | · | -0.7% | · | 1% | · | -11%
COc1ccc(C(=O)NCCc2ccc(F)cc2)cc1OC
→ -3% | 12% | 1.1% | -21% | 2% | 8% | -5%
CC(=O)N/N=C/c1c(C)[nH]n(-c2ccccc2)c1=O
→ -3% | -5% | 1.1% | 10% | 0% | 1% | -8%
CCNc1nc(NC(C)C)nc(OCC)n1
→ -4% | -3%[46.1 µM] | -1.0% | 3% | -1% | 0% | -9%
COc1ccc2c(c1)OCC(Cc1ccc(OC)c(OC(C)=O)c1)C2=O (configuration not stated)
→ 0% | · | 2.7% | · | 2% | · | -11%
CCS(=O)(=O)N1CCCC(C(=O)c2ccc(OC)cc2C)C1 (configuration not stated)
→ -2% | -17% | -2.8% | -15% | -4% | 10% | -13%

A portion of the library; the hit share may differ from the screen's.
